Mac1 fbg inh = blocks human CD11b/CD18 adhesion to fibrinogen; P05107+P11215; K562 CD11b/CD18 adhesion to fibrinogen, ATPlite luminescence; Mn2+ added to activate the integrin; inhibition, % at 10 µM; hit rate 0.54% among 93,000;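 active = primary inhibition of 50% or more at 10 µM, then 40% or more on retest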; also: some results filed as inactive read as strong as hits
Target sequence (P05107 whole entry, looked up, other chains not shown): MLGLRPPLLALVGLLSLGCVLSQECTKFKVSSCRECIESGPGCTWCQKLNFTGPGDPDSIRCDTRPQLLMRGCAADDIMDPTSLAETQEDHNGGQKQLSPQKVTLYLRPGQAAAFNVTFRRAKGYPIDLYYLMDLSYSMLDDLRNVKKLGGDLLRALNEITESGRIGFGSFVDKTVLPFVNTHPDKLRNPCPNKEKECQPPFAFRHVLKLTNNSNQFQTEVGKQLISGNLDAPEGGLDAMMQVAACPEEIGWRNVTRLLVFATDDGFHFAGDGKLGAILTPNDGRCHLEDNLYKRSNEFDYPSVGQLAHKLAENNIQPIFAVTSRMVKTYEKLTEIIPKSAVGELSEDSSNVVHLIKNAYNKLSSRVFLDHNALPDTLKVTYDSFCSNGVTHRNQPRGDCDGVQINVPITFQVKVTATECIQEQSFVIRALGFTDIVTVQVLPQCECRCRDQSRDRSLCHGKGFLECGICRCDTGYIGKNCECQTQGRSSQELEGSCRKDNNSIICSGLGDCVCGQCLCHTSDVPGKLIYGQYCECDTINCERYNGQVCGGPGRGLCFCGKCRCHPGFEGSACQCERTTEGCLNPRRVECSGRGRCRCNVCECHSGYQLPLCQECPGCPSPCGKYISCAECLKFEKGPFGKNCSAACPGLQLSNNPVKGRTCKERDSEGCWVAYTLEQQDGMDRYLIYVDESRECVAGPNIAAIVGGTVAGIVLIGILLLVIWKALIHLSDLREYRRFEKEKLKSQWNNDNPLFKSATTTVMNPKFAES
PostGolgi yeast = growth inhibition of a yeast mutant, post-Golgi transport screen; hit rate 0.9% among 98,000; AID 739; inhibition, % at 10 µM; post-Golgi transport phenotypic cell assay;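 also: yeast cells grown in 1536-well plates; yeast grown about 18 h at 30C before absorbance read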
E coli WT exp = blocks growth of wild type E. coli BW25113 | growth inhibition, % at 100 µM | OD600 absorbance | hit rate 0.15% among 98,000 | AID 710;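 active = growth inhibition above about 50% at one test dose, limit read from the data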;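 also: growth measured after 20 h incubation at 37 °C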
PLAP act = activators of human placental alkaline phosphatase; P05187; purified PLAP enzyme, luminescent substrate read-out; stronger effect = higher value; activation fold at 20 µM; hit rate 1.2% among 96,000; AID 696; in the data active = activation fold above about 2
S1P2 agonist = S1P2 (human) receptor agonism; AID 729; S1P2-expressing cell line, agonist reporter read-out; hit rate 0.46% among 97,000; activation, % at 4.5 µM; O95136; in the data active = activation above about 16%;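 also: 0% = vehicle low control and 100% = maximal reference agonist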
PostGolgi ctrl = inhibits growth of the yeast control strain | hit rate 5% among 98,000 | AID 738 | inhibition, % at 10 µM | efflux-deficient yeast background strain, growth absorbance A615, 16 h
S1P2 antag = blocks the human S1P2 receptor | O95136 | cell-based S1P2 antagonist assay, inhibition at 5 uM | inhibition, % at 5 µM | hit rate 0.21% among 97,000 | AID 736; in the data active = inhibition above about 45%;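 also: CRE beta-lactamase reporter cells expressing human S1P2 stimulated with S1P; 0% = agonist at EC80 alone and 100% = agonist plus reference antagonist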
* = called active by the depositor; · = no result given. Rule as the data show it, unless noted: active = inhibition above about 30%; inactive = the rest.

molecule,PLAP act,S1P2 agonist,PostGolgi yeast,Mac1 fbg inh,S1P2 antag,PostGolgi ctrl,E coli WT exp
CCCCC(=O)NCCNc1nc2c(c(=O)n(C)c(=O)n2C)n1Cc1ccccc1,1,-6,23,0,11,5,4
N#Cc1c(NC(=O)CN2CCCCC2)sc2c1CCC2,1.2,-4,7,-6,17,0,-1
O=C(CSc1ncn[nH]1)Nc1c(F)cc(F)cc1Br,2.1*,-3,-1,2,0,0,3
O=C(Cc1ccccc1)N/N=C\c1ccc(Br)o1,0.9,-2,2,·,12,0,21
CC(=O)N1CCN(S(=O)(=O)c2cccc(C(=O)Nc3ccc4c(c3)CCC4)c2)CC1,·,-5,·,·,-3,·,·
CCN(CC)C(=O)CSc1nc(-c2ccc(C)cc2)nc2c1COC(C)(C)C2,1.4,-3,5,0,3,36*,0
CC(Oc1ccccc1)C(=O)Nc1ccc(S(=O)(=O)NCC2CCCO2)cc1 (configuration not stated),0.9,0,-3,·,15,-10,9
CCOc1ccccc1NC(=S)N1CCC(NC(=O)NC23CC4CC(CC(C4)C2)C3)CC1,1,-5,-1,-6,31,14,1
CCN(CC)C(=O)CSc1nc2cc(OC)c(OC)cc2c(=O)n1Cc1ccc(Cl)cc1,1,7,-2,-12,-12,26,-9
COc1ccccc1C(=O)Nc1ccccc1SC,0.7,-3,11,6,-11,16,5
Cc1cc(NS(=O)(=O)c2ccc(NC(=O)c3cc4ccccc4o3)cc2)no1,1.1,-1,-4,-21,-6,-3,-7
O=C(Nc1nnc(-c2ccccc2)s1)c1cccc(S(=O)(=O)N2CCOCC2)c1,·,-2,·,·,4,·,·
O=C(Nc1ccccc1C(=O)N1CCCCC1)c1cccc(S(=O)(=O)N2CCOCC2)c1,1.2,-7,3,6,-10,3,1
Nc1nc(N)nc(-c2ccccc2O)n1,1,-6,-2,-2,10,4,24
CCC(C)c1ccc(NC(=O)c2cccnc2)cc1 (configuration not stated),0.8,-6,-8,·,-6,13,-2
COC(=O)c1cc(=O)nc2sc3cc(OC)ccc3n12,·,-5,·,·,-14,·,·
CC(C(=O)NCC1(c2ccccc2)CCCC1)N1CCCC1 (configuration not stated),1.5,-5,-2,14,-6,-3,-4
Cc1ccccc1N(CC(=O)N/N=C/c1ccc(Cl)cc1)C(=O)c1ccccc1,1.5,-6,8,6,-9,32*,-10
COc1cc(OC)cc(C(=O)N2CCC(n3c(C)nc4cc(F)ccc43)CC2)c1,1.4,-5,-2,7,-7,6,1
COCCCN1C(=O)c2[nH]nc(-c3ccccc3O)c2C1c1ccc(Cl)cc1 (configuration not stated),1.4,-6,-6,8,-26,14,4

Three compounds picked at random from those above:
molecule,PLAP act,S1P2 agonist,PostGolgi yeast,Mac1 fbg inh,S1P2 antag,PostGolgi ctrl,E coli WT exp
CCC(C)c1ccc(NC(=O)c2cccnc2)cc1 (configuration not stated),0.8,-6,-8,·,-6,13,-2
CC(=O)N1CCN(S(=O)(=O)c2cccc(C(=O)Nc3ccc4c(c3)CCC4)c2)CC1,·,-5,·,·,-3,·,·
N#Cc1c(NC(=O)CN2CCCCC2)sc2c1CCC2,1.2,-4,7,-6,17,0,-1

Not a retest: 3 of the compounds above.
molecule,PLAP act,S1P2 agonist,PostGolgi yeast,Mac1 fbg inh,S1P2 antag,PostGolgi ctrl,E coli WT exp
Cc1ccccc1N(CC(=O)N/N=C/c1ccc(Cl)cc1)C(=O)c1ccccc1,1.5,-6,8,6,-9,32*,-10
COc1cc(OC)cc(C(=O)N2CCC(n3c(C)nc4cc(F)ccc43)CC2)c1,1.4,-5,-2,7,-7,6,1
COCCCN1C(=O)c2[nH]nc(-c3ccccc3O)c2C1c1ccc(Cl)cc1 (configuration not stated),1.4,-6,-6,8,-26,14,4

Next compounds
molecule,PLAP act,S1P2 agonist,PostGolgi yeast,Mac1 fbg inh,S1P2 antag,PostGolgi ctrl,E coli WT exp
Nc1c(-c2ccccc2)cnn1C1CCS(=O)(=O)C1 (configuration not stated),0.8,-5,4,-15,-8,-3,12
CC(C)c1ccc(OCC(=O)NC(=S)Nc2ccc3c4c(cccc24)CC3)cc1,0.9,-3,4,-4,30,3,-3
CN1C(=O)CSC1=NCC12CC3CC(CC(C3)C1)C2,0.8,-11,28,-8,-5,23,-2
Oc1ccc2cccnc2c1,0.7,-5,1,-22,-14,-1,12
CCN(CC)S(=O)(=O)c1ccc(C(=O)Nc2ccc(OCC(=O)N3CCOCC3)cc2)cc1,1.4,2,1,8,-3,2,0
O=S(=O)(Nc1ccc(-c2nc3cccnc3s2)cc1)c1cccs1,1.2,6,4,-34,-21,-3,-4
CCOC(=O)CSc1ccc2nnc(-c3ccncc3)n2n1,·,-1,-1,·,-2,-1,2
CCN(CC)CCCN1C(=O)C(O)=C(C(=O)c2cc3cccc(OC)c3o2)C1c1ccncc1 (configuration not stated),1.3,-2,4,2,13,12,-4
CCOc1cc(/C=C2/NC(=O)N(CC(=O)Nc3cccc(C)c3)C2=O)ccc1O,·,-1,·,·,-3,·,·
Cc1ccc(N(CC(=O)N2CCN(c3ccc(F)cc3)CC2)S(=O)(=O)c2c(C)nn(C)c2C)cc1,1.6,-9,-5,0,-5,0,0
Cc1c(C(=O)Nc2ccc(Cl)cc2)c2ccccn2c1C(=O)c1ccccc1,0.9,-9,12,-10,-1,10,-15
CCOC(=O)c1c(NC(=O)CSc2nnc(C)s2)sc2c1CCC(C)C2 (configuration not stated),·,-3,·,·,-24,·,·
Cc1sc2ncn(CC(=O)NCCCC(=O)N3CCN(c4ncccn4)CC3)c(=O)c2c1C,1.3,-7,2,34,16,3,1
CCN(CCNC(=O)C1CCN(S(C)(=O)=O)CC1)c1ccccc1,1,-11,2,-18,9,9,-7
CC1=C(C(=O)Nc2cc(C)ccn2)C(c2ccc(C)cc2)C2=C(CCCC2=O)N1 (configuration not stated),1.2,3,-2,-2,-1,14,-1
Oc1ccc2ccccc2c1CNc1cnc2ccccc2c1,1.3,-6,-1,3,-2,-1,5
CCOC(=O)c1c(-c2ccccc2)nnn1-c1nc(OC)nc(N2CCOCC2)n1,1.3,1,5,-22,3,-10,-10
O=C(Nc1ccc(Oc2ccccc2)cc1)C1CCN(c2c3c(nc4ncnn24)CCC3)CC1,1.1,-7,-1,·,16,10,-5
CCS(=O)(=O)N1CCC(C(=O)NCc2cccs2)CC1,0.9,-6,-20,-20,9,6,-6
CCCOc1ccc(C2/C(=C(/O)c3ccc(F)cc3)C(=O)C(=O)N2CCCN(C)C)cc1 (configuration not stated),1.6,-3,-4,-3,8,2,7
CCCCNC(=O)COC(=O)CCC(=O)c1ccc(F)cc1,1.2,0,-6,9,-10,6,2
CC(C(=O)Nc1ccc(Cl)cc1)c1ncc(C(F)(F)F)cc1Cl (configuration not stated),0.9,-4,-2,4,8,9,2
COc1ccc(CNC(=O)NC2CCCCC2)cc1,0.9,-8,-7,-1,13,0,-4
NS(=O)(=O)c1ccc(NC(=O)CSc2nnc(COc3ccccc3Cl)n2C2CC2)cc1,1.1,0,5,2,-7,-4,-12
CCOC(=O)Cc1csc(NS(=O)(=O)c2ccc(F)cc2)n1,1.1,-2,-5,2,16,6,2
Cc1ccc(OCc2nnc(SCC(=O)Nc3ccc4c(c3)OCO4)n2C)cc1,0.9,-3,21,-8,-10,-6,-5
CCOC(=O)CCCNC(=O)COC(=O)CCC(=O)c1ccc(F)cc1,0.9,-4,0,-4,18,3,-1
CC(=O)Cc1nsc(NC(=O)c2cccs2)n1,1.2,-3,4,21,-5,7,-13
O=C1OC(c2ccc(Br)cc2)=N/C1=C\N1CCCCC1,0.9,-11,4,7,-2,22,-1
CCOC(=O)Nc1ccc(S(=O)(=O)Nc2cc(C)on2)cc1,0.9,-8,2,6,17,1,8
Cc1cccc2cc(CN(Cc3ccco3)C(=O)c3ccncc3)c(=O)[nH]c12,0.9,-2,-2,-9,5,-4,-2
O=C(CSc1nc(O)cc(=O)[nH]1)C1CC1,1.1,-5,23,-1,6,9,-1
COCCCNC(=O)C1CC(=O)N(CCc2ccccc2)C1 (configuration not stated),0.8,-5,-12,1,-16,6,3
O=C(NCCCN1CCCC1=O)c1ccc2c(c1)NC(=O)c1ccccc1S2,1.5,-6,-1,2,19,5,1
O=C(Cc1ccc(S(=O)(=O)N2CCOCC2)s1)Nc1ccc2c(c1)CCC2,1,-2,0,6,9,6,-10
O=C(Nc1ccccc1)N1CCCC(c2nc(-c3ccc(F)cc3)no2)C1 (configuration not stated),0.9,-8,-4,4,-2,23,-14
CCNC(=O)N1C(=O)C2(OCCO2)c2ccccc21,1.1,-1,1,-2,13,-1,2
O=C(CSCc1ccc([N+](=O)[O-])cc1)NN=C1CCCCCC1,·,-4,·,·,-4,·,·
CCn1c(Cc2ccccc2)nnc1SCC(=O)Nc1ccc(S(N)(=O)=O)cc1,1.2,-3,23,6,-2,-2,11
COCCNC(=O)C1CCCN(c2ncccn2)C1 (configuration not stated),1,-9,-5,-8,4,-3,7

A draw from above in order of SMILES length, lowest first:
molecule,PLAP act,S1P2 agonist,PostGolgi yeast,Mac1 fbg inh,S1P2 antag,PostGolgi ctrl,E coli WT exp
CC(C(=O)Nc1ccc(Cl)cc1)c1ncc(C(F)(F)F)cc1Cl (configuration not stated),0.9,-4,-2,4,8,9,2
O=C(Cc1ccc(S(=O)(=O)N2CCOCC2)s1)Nc1ccc2c(c1)CCC2,1,-2,0,6,9,6,-10
Cc1cccc2cc(CN(Cc3ccco3)C(=O)c3ccncc3)c(=O)[nH]c12,0.9,-2,-2,-9,5,-4,-2

The list continues:
molecule,PLAP act,S1P2 agonist,PostGolgi yeast,Mac1 fbg inh,S1P2 antag,PostGolgi ctrl,E coli WT exp
FC(F)(F)c1ccccc1NC(=S)NN1CCOCC1,0.8,-3,1,-4,-24,3,4
O=C(c1ccco1)N(CCC(c1ccccc1)c1ccco1)Cc1ccco1 (configuration not stated),1.5,-2,-5,5,6,19,3
COc1ccc(-c2ccc(=O)[nH]n2)cc1,0.8,-4,-11,-9,-23,-6,0
NS(=O)(=O)c1ccc(NC(=O)c2ccccc2C(=O)N2CCCCC2)cc1,1.1,-1,-5,5,-7,-7,9
O=c1[nH]cnc2scc(-c3ccccc3)c12,0.9,-2,1,-4,-13,-1,16
COCCCN1C(=O)C(=O)/C(=C(/O)c2ccc(OC(C)C)cc2)C1c1ccc(O)c(OC)c1 (configuration not stated),1,-8,-2,-46,-9,2,4
Cc1sc2ncn(CC(=O)NCCCC(=O)N3CCN(c4ccccc4)CC3)c(=O)c2c1C,1.4,-7,-4,-1,-21,5,-7

The list is partial (hit frequency here may not be typical).
